High-throughput results (PubChem)
Rango-impB inh – qHTS Assay for Inhibitors of Rango (Ran-regulated importin-beta cargo) - Importin beta complex formation. Importin subunit beta-1 (Homo sapiens), Q14974. Rango CFP/YFP FRET sensor + importin beta, 45 min. Potency, µM (top dose mostly 92.2 µM), for inactives: at the highest dose inhibition of complex formation. 340,000 tested, 0.031% active. AID 540263, 2011; active = rising FRET ratio curve, often small or poorly fitted; inconclusive = mostly compound fluorescence or quenching in the first reads; inactive = flat curves in all reads;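 note: potency is the fitted concentration of half-maximal effect; 0% = DMSO wells and 100% = buffer wells lacking importin beta; nearly all actives have a fitted effect of over 15% in size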
Target sequence (Q14974 whole entry, looked up): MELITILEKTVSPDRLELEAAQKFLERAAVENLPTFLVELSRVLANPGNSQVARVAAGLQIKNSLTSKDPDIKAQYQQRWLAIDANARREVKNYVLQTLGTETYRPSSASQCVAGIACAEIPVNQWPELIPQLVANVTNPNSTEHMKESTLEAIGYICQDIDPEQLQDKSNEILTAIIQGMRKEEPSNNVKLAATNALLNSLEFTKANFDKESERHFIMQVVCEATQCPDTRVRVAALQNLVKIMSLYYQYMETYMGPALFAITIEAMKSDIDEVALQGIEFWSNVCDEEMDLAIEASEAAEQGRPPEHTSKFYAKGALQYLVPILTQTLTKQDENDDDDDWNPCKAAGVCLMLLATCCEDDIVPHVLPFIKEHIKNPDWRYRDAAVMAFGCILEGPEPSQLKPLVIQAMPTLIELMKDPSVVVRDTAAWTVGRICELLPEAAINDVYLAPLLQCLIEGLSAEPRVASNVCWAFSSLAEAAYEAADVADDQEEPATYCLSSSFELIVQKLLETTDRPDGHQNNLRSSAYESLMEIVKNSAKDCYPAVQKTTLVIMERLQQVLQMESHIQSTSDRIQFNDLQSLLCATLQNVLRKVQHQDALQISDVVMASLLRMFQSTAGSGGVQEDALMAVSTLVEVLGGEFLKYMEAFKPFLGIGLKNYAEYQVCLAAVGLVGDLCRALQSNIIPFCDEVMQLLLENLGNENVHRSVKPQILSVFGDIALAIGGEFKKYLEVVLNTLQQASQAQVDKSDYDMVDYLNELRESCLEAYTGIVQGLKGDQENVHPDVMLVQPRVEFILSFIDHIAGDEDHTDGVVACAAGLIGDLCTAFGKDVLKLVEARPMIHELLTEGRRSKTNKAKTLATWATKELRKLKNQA
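Inhibition scored from the CFP 486 nm/YFP 530 nm FRET ratio 45 min after adding 0.125 microM importin beta to 50 nM Rango biosensor preincubated 5 min with compound (room temperature, PBS with DTT, Tween-20, BSA). No-importin wells as positive control.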
Rango release inh – qHTS Assay for Inhibitors of RanGTP induced Rango (Ran-regulated importin-beta cargo) - Importin beta complex dissociation; Snurportin-1 (Homo sapiens) + GTP-binding nuclear protein Ran (Homo sapiens) + Importin …; Biochemical FRET Rango-importin beta, RanGTP-induced dissociation; Potency, µM (doses to about 46.1 µM), inactives show at the top dose activity change, negative = inhibition; 340,000 tested, 0.071% active; AID 540253, 2011; active means falling FRET ratio curve, often poorly fitted, with flat reads before Ran was added; inconclusive means other falling curves, or compound fluorescence or quenching; inactive means flat or rising ratio curve;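 note: potency is the fitted concentration of half-maximal effect; % of control where 0% means no effect; nearly all actives have a fitted effect of over 45% in size; -100% = wells without RanGTP and RCC1; the record marks most hits as doubtful in a second field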
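Compounds sat 5 min at room temperature with 0.1 uM Rango biosensor plus 0.25 uM importin beta, then FRET pre-read. RanGTP-RCC1 (0.6 uM Ran, 2mM GTP, 0.2 uM RCC1) added for 45 min, and the CFP/YFP post-read measured blocked complex dissociation.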
miR-21 reporter – qHTS Assay for Modulators of miRNAs and/orActivators of miR-21 | HeLa miR-21 FLuc reporter, luciferase, 48 h | Potency, µM (highest dose often 38.3 µM), for inactives: at the highest dose reporter change, positive = more light | 340,000 tested, under 10 active; active = well fitted rising curve with a large enough effect; inconclusive = small, poorly fitted or top-dose-only effect; inactive = no such curve, though single readings can be large or run the other way;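 note: % of control where 0% means no effect; miR-21 action dims this reporter so a rising signal means less miR-21 action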
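Compounds were titrated across several concentrations (up to approximately 40 uM) and incubated 48 hours with HeLa miR-21-FLuc reporter cells (miR-21 target sequence downstream of FLuc, endogenous miR-21). Readout was firefly luciferase luminescence after lytic detection reagent.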
GLA inh pH 4.5 – qHTS Assay for Inhibitors of Human alpha-Galactosidase at pH 4.5. purified enzyme, 4-MU-alpha-Gal fluorescence, pH 4.5. activity change, negative = inhibition, % at 105 µM. 230,000 tested, under 10 active; inconclusive = small, poorly fitted or top-dose-only inhibition, or a rising curve; inactive = flat fitted curve, though single readings scatter; no compound was filed as active;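 note: 0% = full activity with enzyme and -100% = basal without enzyme; dose as in the result columns while the protocol names 77 µM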
* hit, by the source's call; ? = inconclusive; . = no result given; & = joins results of further samples.

Rango-impB inh	Rango release inh	miR-21 reporter	GLA inh pH 4.5	Molecule
?	?	-25%	4	CCCN1CCC2(CC1)C(C#N)=C(N)Oc1c2sc2nc(C)cc(C)c12
-0.6%	-1%	.	.	CC[C@@]1(C(=O)OC)N[C@H](CN(C)S(=O)(=O)c2ccc(OC(F)(F)F)cc2)[C@@H]2C(=O)N(C)C(=O)[C@@H]21
0.0%	4%	-26%	-6	C=C(C)CSc1nc2c(c(=O)[nH]c(=O)n2C)n1CCC(C)C
?	-11%	3%	2	Cc1cccnc1CN1CCN(Cc2nc(C(c3ccccc3)c3ccccc3)no2)CC1
0.8%	12%	.	.	Cc1nc(N)sc1-c1ccccc1
-0.9%	-4%	.	.	COc1ccc(/C=N/OCC(=O)OCC(=O)N(C)c2ccccc2)cc1
0.7%	4%	0%	1	O=C(COC(=O)[C@H](Cc1ccccc1)NC(=O)c1cccs1)Nc1cc(F)ccc1F
2.0%	-19%	1%	4	CCOC(=O)NC(O)C(=O)c1ccc(F)cc1 (centres undefined)
1.3%	2%	2%	7	O=C(CSc1ncccc1C(=O)O)NCCC1=CCCCC1
-0.1%	0%	-1%	6&-7	Cc1nn(-c2ccccc2)nc1CNC(=O)C(C)Cc1ccccc1 (centres undefined)
-1.3%	24%	1%	9	Cc1nn(C)cc1S(=O)(=O)NC1CCCC1
2.0%	-1%	6%	.	Cc1ccc(NC(=O)CN2C(=O)CSc3ccc(S(=O)(=O)N4CCCCC4)cc32)cc1
0.5%	-9%	-35%	8	CCCCOc1ccc(C2(C)CC(=O)NC2=O)cc1 (centres undefined)
0.9%	2%	-17%	?	Fc1ccc(-c2nnc(CSc3nnc(-c4cccs4)o3)o2)cc1
-1.6%	-9%	1%	-16	O=C1NC(=O)c2cc(NC(=O)C3CCCO3)ccc21 (centres undefined)
-0.5%	-11%	.	.	CCc1noc(C)c1C(=O)Nc1nc2ccc(S(C)(=O)=O)cc2s1
0.5%	0%	-8%	-22	C=CCn1cc(/C=N/N2C(=O)C3C4C=CC(C4)C3C2=O)c2ccccc21 (centres undefined)
2.6%	29%	-2%	7	CC1=CC(C)(C)n2c(O)c(N=NC(N)=S)c3cc(C)cc1c32
2.9%	0%	-12%	-5	COc1ccc(C(=O)CC(c2ccccc2)C2C(=O)CCCC2=O)cc1 (centres undefined)
0.6%	10%	-29%	.	COc1ccc(C(=O)N/N=C(\C)CC(=O)Nc2ccc(N(C)C)cc2)c(OC)c1
-3.6%	20%	-21%	-6	CCN(CC)c1ccc(NC(=O)c2nc3nc(C)cc(C(F)F)n3n2)cc1
?	?	0%	-6	CC1=NN2C(=N)/C(=C\c3cc(C)n(-c4cccc(C)c4)c3C)C(=O)N=C2S1
5.2%	-3%	-40%	.	N#C/C(=C\c1ccc(OCc2ccc(Cl)cc2)cc1)C(=O)Nc1cccc(C(=O)O)c1
-0.9%	-8%	-3%	1	CC(=O)Cc1nsc(NC(=O)c2ccc(-c3ccc(Cl)c(C(F)(F)F)c3)o2)n1
1.2%	8%	.	.	N#Cc1cccc(NC(=O)CSc2nnc(C3CC3)n2C2CC2)c1
3.4%	-14%	-3%	-1	CCCS(=O)(=O)N1CCCC(C(=O)N2CCN(C(=O)OCC)CC2)C1 (centres undefined)
0.3%&0.7%	-19%&9%	-57%&-41%	-7	Clc1ccccc1-c1nc(-c2ccncc2)no1
-3.4%	-16%	16%	.	COc1cc(C)cc2oc(=O)c(CC(=O)N3CCN(C(=O)C4COc5ccccc5O4)CC3)c(C)c12 (centres undefined)
0.4%	5%	-2%	1	COc1c(C)cc(C(=O)C2CCCN(C(=O)c3snnc3C)C2)cc1C (centres undefined)
-1.3%	?	-3%	-12	O=C(COC(=O)c1ccccc1)Nc1ccccc1N1CCOCC1

Taken from above.
C=CCn1cc(/C=N/N2C(=O)C3C4C=CC(C4)C3C2=O)c2ccccc21 (centres undefined) | miR-21 reporter: -8%
N#C/C(=C\c1ccc(OCc2ccc(Cl)cc2)cc1)C(=O)Nc1cccc(C(=O)O)c1 | Rango release inh: -3%

Further entries.
Rango-impB inh	Rango release inh	miR-21 reporter	GLA inh pH 4.5	Molecule
?	-8%	15%	-15	O=C(Nc1ccccc1Br)C1CC(=O)N(c2ccc3c4c(cccc24)CC3)C1 (centres undefined)
1.6%	-1%	6%	-10	Cc1cc2cc(CCNC(=O)c3ccc(S(=O)(=O)N4CCOCC4)cc3)c(=O)[nH]c2cc1C
-3.6%	22%	.	.	CCN(CC)c1ccc(S(=O)(=O)N2CCOCC2)cc1NC(=O)CNCc1cccc(Cl)c1
1.4%	3%	6%	.	O=C(CSc1nnc(NC(=O)c2cccc(F)c2)s1)NC1CC1
-2.9%	-1%	25%	-2	CC(C)C[C@H](N)c1nnc(S(=O)(=O)Cc2cccc(F)c2)o1
7.8%	-1%	-3%	3	CCc1nc2ccc(C(=O)Nc3nnc(C)s3)cc2nc1CC
?	-13%	-7%	-8	CSc1nc(N(C)CCO)c2sc3nc(-c4ccco4)c4c(c3c2n1)CCC4
-2.4%	-5%	0%	-2	OCC1(Cc2cccc(Cl)c2)CCCN(Cc2ccc3cc(F)ccc3n2)C1 (centres undefined)
4.0%	10%	.	.	Cc1cccc(NS(=O)(=O)c2cccc(C(=O)NCc3ccccc3CN3CCOCC3)c2)c1
-6.5%	-13%	-6%	.	Cc1cccc(NC(=O)CN2CCOCC2)c1C
1.3%	4%	2%	.	Cc1nnc(SCC(=O)NC2CC2)s1
0.7%	17%	-22%	-1	Cc1ccc2nc(-c3ccc(SCC(=O)Nc4cc(C)on4)nc3)[nH]c2c1
3.3%	13%	0%	-5	CCOc1ccc2[nH]c(=O)c(CN(Cc3ccco3)C(=O)c3ccc(Br)cc3)cc2c1
-2.4%	-8%	6%	1	COC(=O)c1ccc(C(=O)OC)c(NC(=O)CSc2cccc[n+]2[O-])c1
3.3%	26%	1%	0	Cc1nn(Cc2ccccc2)c(Cl)c1/C=C/C(=O)OCC(=O)NC(C)C(C)C (centres undefined)
1.5%	-22%	-1%	-4	CCCCOc1ccc(C(=O)Nn2cnnc2)cc1
-0.5%	19%	0%	2	CCN(CC)C(=O)C1CCCN(c2ccc([N+](=O)[O-])cc2/C=N/NC(=O)c2ccc([N+](=O)[O-])cc2)C1 (centres undefined)
-3.6%	-2%	-21%	-11	O=C(NN=C1CCCCC1)c1ccccc1OCc1ccc(F)cc1
0.4%	-12%	-11%	1	CN1CCC=C(C(=O)N2c3ccccc3Sc3ccc(Cl)cc32)C1
-1.7%	1%	0%	6	CCN(CC)S(=O)(=O)c1ccc(NC(=O)COC(=O)c2ccc(NC(=O)CC#N)cc2)cc1
4.3%	2%	1%	2	O=C1CN(C(=O)CSc2nnc3ccccn23)c2ccccc2N1
0.2%	7%	-1%	0	CCOC(=O)/C(C)=N/NC(=O)c1cccc([N+](=O)[O-])c1
?	-13%	-2%	4	COc1cc(-c2cc(C(F)(F)F)n3ncc(C(=O)O)c3n2)cc(OC)c1OC
0.6%	1%	-4%	.	Cn1c(SCC(=O)NNC(=O)c2ccccc2O)nnc1-c1ccccc1
1.5%	-4%	?	-4	COCCNC(=S)N(CCc1c(C)[nH]c2ccc(Cl)cc12)Cc1cccs1
4.7%	-9%	2%	.	COC(=O)CN1C(=O)COc2ccc(S(=O)(=O)NCc3ccc(F)cc3)cc21
-4.1%	6%	-17%	2	COc1ccc(-c2nnc3ccc(SCC(=O)Nc4nc5ccc(C)cc5s4)nn23)cc1OC
1.6%	-2%	-39%	4	CCCC(=O)N=c1sc2cccc(F)c2n1C
0.1%	-16%	-2%	-1	COc1cc(OC)c(C(=O)CCC(=O)O)cc1OC
?	?	-49%	0	Nc1nonc1-c1noc(COc2ccccc2Cl)n1
0.1%	6%	1%	.	CCc1ccc(S(=O)(=O)Nc2ccccn2)cc1
3.7%	-11%	-2%	.	O=C(C1CCN(S(=O)(=O)c2cccc3nsnc23)CC1)N1CCCCC1
0.5%	1%	-54%	8	COc1ccc(NC(=O)C(=S)NC2CCCCC2)cc1
3.2%	8%	-5%	-1	C(=C\c1ccccc1)/CNn1cnnc1
-0.3%	19%	.	.	O=C(CCc1ccccc1)Nc1cc2c3c(c1)CC(=O)N3CCC2
-2.8%	-3%	.	.	CCN1CCN(c2ccc(S(=O)(=O)N3CCOCC3)cc2NC(=O)c2ccccc2SC)CC1
-5.9%	-10%	-6%	.	Cc1ccccc1C(=O)NC(C)C1CC2CCC1C2 (centres undefined)
0.1%	-9%	-50%	2	Cc1ccc(NCCC(=O)c2cccs2)cc1C
11%	19%	10%	.	COc1cc(/C=N/N2CCN(Cc3ccc(Cl)cc3)CC2)cc(Br)c1O
-0.8%	22%	-5%	7	Cc1cc(N2CCN(c3ccc(F)cc3)CC2)n2ncnc2n1
1.0%	1%	-14%	6	Cc1cc(NC(=O)CSc2nnc(Nc3ccccc3F)s2)no1
-1.5%	-9%	-6%	.	Cc1cc(=O)oc2cc(NC(=O)c3ccccc3C(=O)O)ccc12
-2.1%	0%	10%	0	Cc1[nH]c(=S)sc1Cc1ccc(F)cc1
-0.3%	2%	.	.	COc1cc2cc(C)c(Br)c(OC)c2cc1OC
2.5%	18%	0%	.	CCc1cccc(NC(=O)CCNS(=O)(=O)c2ccc3[nH]c(=O)oc3c2)c1

Only Rango release inh and miR-21 reporter (three entries from above):
Compound	Rango release inh	miR-21 reporter
CCN1CCN(c2ccc(S(=O)(=O)N3CCOCC3)cc2NC(=O)c2ccccc2SC)CC1	-3%	.
Cc1ccccc1C(=O)NC(C)C1CC2CCC1C2 (centres undefined)	-10%	-6%
O=C(CCc1ccccc1)Nc1cc2c3c(c1)CC(=O)N3CCC2	19%	.

The results go on.
Rango-impB inh	Rango release inh	miR-21 reporter	GLA inh pH 4.5	Molecule
-0.5%	-7%	.	.	CC1=C(SCc2ccccc2)C(=O)c2ccccc2C1=O
-2.8%	-13%	0%	1	Cc1c(NS(=O)(=O)CC23CCC(CC2=O)C3(C)C)c(=O)n(-c2ccccc2)n1C (centres undefined)
?	-2%	-40%	7	CCCCS/C(N)=N/N=C/c1cc(C)ccc1O
?	?	0%	2	O=C(O)c1ccccc1C(=O)c1cccs1
0.0%	10%	-5%	-8	O=C(Cc1ccccc1)Nc1cc(Cl)ccc1Sc1ccccc1
4.4%	1%	0%	-2	CCCCOCCCNC(=O)N[C@H](C(=O)O)C(C)CC (some centres undefined)
-3.6%	2%	-3%	-3	CCOc1ccc(-c2nc(N)nc(C)c2-c2ccc(OC)c(OC)c2)c(O)c1
0.2%	1%	0%	-14	O=C(NC1CCCCC1)C1CC(=O)N(CCc2ccccc2)C1 (centres undefined)
1.0%	11%	1%	.	CC(C)CCn1c(SCC(=O)Nc2ccccc2C(F)(F)F)nc2nccnc2c1=O
6.8%	-16%	-5%	-1	COc1ccc(OC)c2[nH]c(C(=O)O)cc12
-6.1%	6%	-2%	-7	CCC(C)NC(=O)C1CCN(C(=O)N(C)C)CC1 (centres undefined)
-1.9%	1%	-7%	-10	CC(C)=C1C(=O)NN(c2cccc(Cl)c2)C1=O

Profiles, quoted from the list. Values in the order: Rango-impB inh | Rango release inh | miR-21 reporter | GLA inh pH 4.5
Listed for `CCCCS/C(N)=N/N=C/c1cc(C)ccc1O` = ? | -2% | -40% | 7
Listed for `CCOc1ccc(-c2nc(N)nc(C)c2-c2ccc(OC)c(OC)c2)c(O)c1` = -3.6% | 2% | -3% | -3
Listed for `Cc1c(NS(=O)(=O)CC23CCC(CC2=O)C3(C)C)c(=O)n(-c2ccccc2)n1C` (centres undefined) = -2.8% | -13% | 0% | 1
Listed for `CCC(C)NC(=O)C1CCN(C(=O)N(C)C)CC1` (centres undefined) = -6.1% | 6% | -2% | -7
Listed for `O=C(O)c1ccccc1C(=O)c1cccs1` = ? | ? | 0% | 2

This is a subset, so the mix of outcomes need not match the whole.
